# Assay outcomes from PubChem.
# TRPV1 PAM: human TRPV1 potentiation; TRPV1-expressing cells, Fluo-8 calcium influx, capsaicin EC20 potentiation; host cell line not named in the record; control for the full effect not named in the record; potentiation, % at 8.33 µM; Q8NER1; actives 0.02% (n = 320,000); active means potentiation above 80%; inconclusive means 30% to 80%; inactive means below 30%; also: 0% is about no effect
#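 Fluo-8 calcium influx in TRPV1-expressing cells, kinetic read (ex 480/em 520 nm). Compound added and read 3 min for agonist activity, followed by capsaicin at EC20 final and 2 min further read for enhancement.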
# TRPML1 inh: blocks the human TRPML1 channel; activity change, negative = inhibition, % (no concentration beside the values); TRPML1-inducible cells, Ca2+ dye fluorescence, FDSS; stronger effect = lower value; inhibition of EC80 agonist-evoked calcium signal; Q9GZU1; actives 0.02% (n = 390,000); AID 624415; in the data active means activity change below about -50%; inconclusive means about -30% to -50%; inactive means above about -30%;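 also: stimulus is agonist 54-4 at its EC80 concentration; % is scaled to controls: 0 for no effect and ±100 for the full control effect; compound concentration not given in the record; the text of the record puts the active cut at -80%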
# Target sequence (Q9GZU1 whole entry, looked up): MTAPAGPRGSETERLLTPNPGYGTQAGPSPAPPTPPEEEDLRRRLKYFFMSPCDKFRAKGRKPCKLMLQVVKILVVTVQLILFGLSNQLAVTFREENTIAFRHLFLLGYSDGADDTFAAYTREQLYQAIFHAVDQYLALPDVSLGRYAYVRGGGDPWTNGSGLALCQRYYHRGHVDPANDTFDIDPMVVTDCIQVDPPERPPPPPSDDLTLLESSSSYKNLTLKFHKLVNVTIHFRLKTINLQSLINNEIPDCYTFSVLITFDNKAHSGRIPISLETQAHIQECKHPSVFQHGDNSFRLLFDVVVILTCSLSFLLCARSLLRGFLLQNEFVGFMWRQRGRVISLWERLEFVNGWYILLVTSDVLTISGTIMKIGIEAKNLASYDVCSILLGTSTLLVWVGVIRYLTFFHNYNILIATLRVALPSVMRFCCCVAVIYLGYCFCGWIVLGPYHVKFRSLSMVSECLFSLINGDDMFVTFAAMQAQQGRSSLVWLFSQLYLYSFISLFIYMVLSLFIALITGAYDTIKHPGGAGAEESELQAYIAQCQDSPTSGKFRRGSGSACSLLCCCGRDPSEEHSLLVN
#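 TRPML1-DL cells, Tet-induced overnight (~16 h, 37 °C) at 1,500 cells/well, were loaded with Ca8 no-wash dye plus quencher for 45-90 min at room temperature. Compounds were pinned during FDSS kinetic reading; agonist 54-4 at EC80 (4 uM final) then added.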
# gsp ag: activates gsp, the McCune-Albright syndrome mutation; Potency, µM (doses to about 76.9 µM), inactives show top-dose activation (cAMP increase), hits mostly activators; AID 624287; actives 0.13% (n = 340,000); gsp mutant cells, cAMP HTRF, 30 min; control for the full effect not named in the record; active = well fitted activation curve with a large enough effect; inconclusive = small, poorly fitted or top-dose-only effect, or another doubt; inactive = no such curve, though single readings can be large or run the other way; cell line not stated here;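 also: phosphodiesterase inhibitor Ro 20-1724 added with compounds to block cAMP breakdown; potency is read from the fitted curve at half-maximal effect; nearly all actives have a fitted effect of over 60% in size; about a fifth of the inactives were tested at one dose only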
#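 Cells in DMEM/10% FBS with G418 were pretreated with compounds in DMSO plus […] (300 uM stock) for 30 min at 37C. cAMP was measured by HTRF (cAMP-d2 plus anti-cAMP antibody-K) after 30 min at room temperature.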
# Sfp PPTase inh: inhibitors of Bacillus subtilis Sfp phosphopantetheinyl transferase; Q9F4F7; Potency, µM, for the others: max response, negative = inhibition, most hits filed as inhibitors; Biochemical Sfp PPTase activity, qHTS; actives 3.5% (n = 310,000); AID 1490; active = well fitted inhibition curve with a large enough effect; inconclusive = small, poorly fitted or top-dose-only effect, or another doubt; inactive = no such curve, though single readings can be large or run the other way;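 also: the enzyme is Sfp with the accession as filed and its product quenches rhodamine fluorescence; potency is read from the fitted curve at half-maximal effect; 0% = enzyme reaction without inhibitor and -100% = no enzyme wells; top concentration of the series not given in the record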
#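 With Hepes-Na pH 7.6 buffer containing 10 mM MgCl2, Sfp (15 nM) modified BHQ-2-YbbR (12.5 uM) using rhodamine-CoA (5 uM). Two reads 30 minutes apart at 525/598 nm yielded each well's rate.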
# gsp antag: antagonists of gsp mutant (McCune-Albright syndrome); gsp-mutant cells, cAMP HTRF, 30 min; control for the full effect not named in the record; Potency, µM (top dose mostly 76.9 µM), inactives show top-dose activity change, negative = inhibition, actives largely listed as inhibitors; actives 0.4% (n = 340,000); AID 624288; active = falling curve of any shape with a large fitted effect; inconclusive = falling curve, mostly with a smaller effect; inactive = flat or rising curve; cell line not stated here;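 also: intracellular cAMP measured with PDE inhibitor Ro 20-1724 present during compound exposure; potency is read from the fitted curve at half-maximal effect; % is scaled to controls: 0 for no effect and ±100 for the full control effect; nearly all actives have a fitted effect of over 65% in size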
#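 HTRF cAMP read-out (cAMP-d2 plus anti-cAMP antibody-K in lysis buffer, 30 min RT). Before lysis, cells are exposed to compounds with […] for 30 min at 37C in DPBS containing Ca/Mg, BSA and Tween 20.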
# ClpP mod: qHTS Assay for Activators of ClpP | ATP-dependent Clp protease proteolytic subunit (Bacillus subtilis (strain 168)), P80244 | purified B. subtilis ClpP, FRET peptide cleavage, 20 min | Potency, µM (titrated, usually from 57.5 µM), inactives show at the highest dose activity change, negative = active | actives 1.9% (n = 340,000); active = well fitted falling curve with a large enough effect; inconclusive = small, poorly fitted or top-dose-only effect; inactive = no such curve, though single readings can be large or run the other way; also: potency is read from the fitted curve at half-maximal effect; the source files actives as falling curves though it sought activators and does not explain the sign; nearly all actives have a fitted effect of over 65% in size; many hits overshoot -100%
# Target sequence (P80244 whole entry, looked up): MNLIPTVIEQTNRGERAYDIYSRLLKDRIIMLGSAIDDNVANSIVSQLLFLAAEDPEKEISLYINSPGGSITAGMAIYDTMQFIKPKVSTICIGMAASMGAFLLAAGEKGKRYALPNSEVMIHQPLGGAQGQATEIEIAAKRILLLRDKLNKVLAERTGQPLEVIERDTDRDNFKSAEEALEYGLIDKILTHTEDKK
#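 ClpP 10 microg/mL final, pH 8 Tris/KCl buffer with BSA, glycerol, Tween-20; compound pinned in; FRET-FV substrate; RT 20 min; Ex320/Em430; ΔFRET vs ADEP 5.8 microM, DMSO, no enzyme.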
# Menin-MLL FL inh: displaces fluorescein MLL peptide from human menin. Fluorescence polarization, fluorescein-MLL peptide displacement from menin. FP activity change, % at 61.4 µM. 290,000 tested, under 10 active; inconclusive = falling polarisation curve, or a change in total fluorescence; inactive = total fluorescence flat and polarisation flat or rising; no compound was filed as active; the % refers to the polarisation; negative = inhibition;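 also: % of control where 0% means no effect; inhibitors lower the polarisation; unlabelled MLL peptide was the positive control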
# The depositor's hits bear a star; ? = inconclusive; . = no result given; & = joins results of further samples; [ ] = dose if it differs, or a comment.
# Order of values – TRPV1 PAM	TRPML1 inh	gsp ag	Sfp PPTase inh	gsp antag	ClpP mod	Menin-MLL FL inh
COC(=O)C(NC(=O)c1ccco1)(Nc1cc(C)ccn1)C(F)(F)F (stereo not given)
 : -4	-1	-11%	12%	4%	-4.3%	1.2
Clc1cccc(CN2CCN(c3nc4nonc4nc3NC3CC3)CC2)c1
 : 16	24	22%	-2%	5%	1.3%	-16
CC(C)Oc1cccc(C(=O)C2CCCN(C(=O)c3ccc4c(c3)OCO4)C2)c1 (stereo not given)
 : -2	-2	26%	4%	-19%	-2.3%	-1.6
COc1cccc(NC(=O)CN(C)C(=O)c2cc(-c3ccccc3)nc3ccccc23)c1
 : -5	5	4%	.	?	15%	.
Cc1ccc(NC(=O)COC(=O)CCC2CCCC2)cc1S(=O)(=O)N1CCOCC1
 : .	8	?	.	8%	.	.
CCOC(=O)CNC(=O)CSc1nnc(NC(=O)c2ccc(C)cc2)s1
 : -10	-17	16%[15.4 µM]	15%	11%	.	-0.9
CC(=O)c1cn(C)c(=O)[nH]c1=O
 : 3	40	-5%[15.4 µM]	9%	-9%	.	4.0
O=C(N/N=C/c1ccccn1)c1ccc2nc[nH]c2c1
 : .	-3	7%[15.4 µM]	?	2%	.	4.3
CC(C)CCN1CCN(Cc2cnc(N3CCCC3)s2)CC1CCO (stereo not given)
 : 6	5	16%	-1%	2%	.	-5.5
CCc1nnc(NC(=O)CSc2nc3cc(OC)ccc3cc2C)s1
 : -4	-6	3%[15.4 µM]	20%	-15%	.	-1.9
O=C1OCCN1C(=O)[C@H]1[C@H](c2ccccc2)C(c2ccccc2)=NN1c1ccc(Br)cc1
 : .	20	.	17%	-2%	4.7%	4.2
c1ccc(-c2n[nH]c3c2CCC3)cc1
 : 15	27	7%	15%	12%	0.5%	0.6
CC(C)CN(C(=O)COC(=O)c1ccc2ccccc2n1)C1CCS(=O)(=O)C1 (stereo not given)
 : ?	7	2%[15.4 µM]	14%	6%	.	-2.8
O=S(=O)(NCCNc1nccc(C(F)(F)F)n1)c1ccccc1
 : -20	2	-2%[15.4 µM]	-1%	8%	1.1%	1.9
COc1ccc(S(=O)(=O)N2CCC(C(=O)NCc3ccco3)CC2)cc1
 : -20	4	0%	-10%	0%	-0.1%	3.2
CCN(CC)S(=O)(=O)c1ccc2oc(C(=O)N3CCOCC3)c(C)c2c1
 : 14	-12	12%	-12%	8%	0.3%	1.2
Cc1ccc(CCCNC(=O)C2CCC(=O)N(Cc3cccc(F)c3)C2)cc1 (stereo not given)
 : -9	-1	16%	11%	8%	.	-0.5
O=C(CCCn1c(=S)[nH]c2ccccc2c1=O)N1CCN(c2cccc(Cl)c2)CC1
 : 0	-3	25%	-26%	9%	0.5%	0.6
COc1ccc(C(=O)C(=NNc2ccccc2)c2ccc(OC)cc2)cc1
 : .	15	-42%[inhibitor]	.	-18%	.	.
Cc1cc(C)c2c(n1)nn1c(N3CCN(c4ccccn4)CC3)cc(C)nc21
 : 3	.	.	1%	.	.	1.2
COc1cccc(N(C(=O)Cn2nnc(-c3ccc(C)cc3)n2)C(C(=O)NC(C)(C)C)c2c[nH]c3ccccc23)c1 (stereo not given)
 : .	-6	8%	11%	-4%	-1.1%	1.5
CCOC(=O)C(C)N1N=C(/C=C/c2ccc(OC)cc2)CCC1=O (stereo not given)
 : 3	-21	0%	19%	3%	-4.3%	2.5
CCOC(=O)c1c(C)c2c(=O)[nH]cnc2n1-c1ccccc1
 : -22	14	16%	17%	13%	-1.3%	4.3
CN(c1ccc(C(=O)N/N=C/c2cccc([N+](=O)[O-])c2)cc1)S(=O)(=O)c1ccccc1
 : 6	-4	10%	-16%	-14%	.	-3.2
CCOC(=O)c1cc(C)sc1NC(=O)CN1CCN(C(=O)c2ccco2)CC1
 : 1	13	-3%	14%	-23%	-7.1%	.
Cc1cc(C)c2c(n1)SCC(=O)N2CC(=O)Nc1cccc(Cl)c1
 : -19	1	5%	8%	5%	1.4%	0.1
Brc1ccc(-c2nnc3sc(CN4CCc5ccccc5C4)cn23)cc1
 : .	.	?	.	10%	-1.4%	.
CN(C)CCn1c2c(c(SCC(=O)N3CCc4ccccc43)nc1=O)CCCC2
 : 8	14	-1%[15.4 µM]	.	1%	0.2%	.
CCOC(=O)C1CCN(C(=O)c2ccc3snnc3c2)CC1
 : -9	8	-12%	7%	5%	-1.7%	1.2
CCOc1ccc(NC(=O)C2CCN(S(=O)(=O)c3ccc4c(c3)CC(C)N4C(C)=O)CC2)cc1 (stereo not given)
 : 11	11	?	7%	?	0.5%	3.1
Cc1cc2c(cc1C)[n+](C)cn2CC(O)COCc1ccccc1 (stereo not given)
 : 12	1	-5%	-3%	2%	-4.0%	3.7
Cc1ccccc1C(=O)NNS(=O)(=O)c1cccc([N+](=O)[O-])c1
 : 0	29	-3%	5%	8%	.	1.8
CCN(Cc1ccccc1)C(=O)CCNS(=O)(=O)c1cc(Br)cnc1N
 : 10	-7	?	6%	-1%	?	.
CCOCCCNC(=S)N1CCN(c2nc(-c3ccccc3)cs2)CC1
 : 1	1	-59%[inhibitor]	6%	50µM*	-1.7%	-0.7
COc1ccc(CNC(=O)CSc2nc3ccc(C)cc3[nH]2)cc1OC
 : -22	6	19%[15.4 µM]	3%	-27%	.	1.7
O=C(CN1CCOCC1)Nc1ccc(C2CCCCC2)cc1
 : -13	7	-2%	-7%	14%	0.7%	-1.6
c1ncn(C23CC4CC(CC(C4)C2)C3)n1
 : 6	5	21%	13%	10%	2.6%	2.8
COc1ccc(OC)c(CCNC(=O)CCc2nnc3ccc(N4CCOCC4)nn23)c1
 : 0	6	52%	5%	14%	0.0%	.
CN(C)c1ccnc(Nc2ccccc2)c1C#N
 : -1	-5	29%	-1%	2%	.	-1.4
COc1ccc(C(C)=O)cc1COC(=O)C1CC(=O)N(Cc2ccccc2)C1 (stereo not given)
 : -2	-1	-17%	17%	-2%	0.6%	.
CN(CC(=O)Nc1ccc(Cl)c(C(F)(F)F)c1)C(=O)C1(c2ccccc2)CC1
 : -3	-13	-2%	.	?	1.2%	.
c1cncc(-c2nnc3n2C2(CCCCC2)Cc2ccccc2-3)c1
 : 14	4	-42%[inhibitor]	13%	-13%	0.2%	2.6
Nc1nc(-c2ccccc2)c(CCCOc2ccc(NC(=O)CBr)cc2)c(=O)[nH]1
 : .	-11	-3%	.	-15%	-2.4%	.
COc1ccnc2c1c(=O)n(Cc1cccc(F)c1)c(=O)n2C
 : 22	-16	-42%[inhibitor]	10%	-13%	-12%	-3.6
Nc1nonc1C(=O)NCCN=Cc1ccccc1O
 : 10	-1	4%	89µM*	6%	-1.6%	0.5
COc1ccc(OCCOCCN2CCOCC2)cc1
 : 5	-8	5%	-16%	1%	0.4%	0.9
COc1ccc(S(N)(=O)=O)cc1C(=O)OCCCOC(=O)c1cc(S(N)(=O)=O)ccc1OC
 : 28	6	?	-9%	12%	-3.3%	.
C=CCN(c1ccccc1)S(=O)(=O)c1ccc2c(c1)NC(=O)C(C)S2 (stereo not given)
 : 14	21	9%	2%	-10%	-2.3%	.
CSc1ncnc2c1ncn2CCCNCCCc1ccccc1
 : .	0	-15%	.	.	1.2%	.
Cn1cc(C(=O)Nc2ccc(Cl)cc2)c(C(F)(F)F)n1
 : -3	-6	16%	12%	20%	0.3%	-2.1

# Next part
# Order of values – TRPV1 PAM	TRPML1 inh	gsp ag	Sfp PPTase inh	gsp antag	ClpP mod	Menin-MLL FL inh
Cc1nnc(NC(=O)CSc2nc3[nH]ncc3c(=O)[nH]2)s1
 : -7	20	-5%	8%	3%	-0.4%	-0.7
CCOc1ccccc1C(=O)NC(C(=O)Nc1cccnc1)C(C)C (stereo not given)
 : -23	17	6%	15%	-1%	-4.5%	0.5
CCOC(=O)C1=C(C)N=c2s/c(=C\c3ccncc3)c(=O)n2C1c1ccc2c(c1)OCO2 (stereo not given)
 : -14	-6	-38%[inhibitor]	-20%	-10%	-1.3%	?
N#C/C(=C\c1ccc(-c2ccc(C(=O)O)cc2)o1)c1nc2ccccc2[nH]1
 : 16	7&4	-16%[15.4 µM]	-12%	-6%	-8.6%	?
CC1=CC=CC2=NC(=O)CC(C)(C(=O)N(CC(=O)NC3CCCC3)c3ccc(F)cc3)N12 (stereo not given)
 : 0	17	11%[15.4 µM]	15%	-27%	.	.
CC(=O)c1c(C)[nH]c(C(=O)NCC2CCCCC2)c1C
 : -9	5	-1%	-6%	-8%	.	-5.8
Clc1ccc2[nH]c3c(c2c1)CCc1cn[nH]c1-3
 : 1	14	-5%	13%	-21%	28µM*	2.9
CC(C)(C)OC(=O)N1CCCC1C(=O)NC1COC2CC(n3cc(F)c(=O)[nH]c3=O)OC12 (stereo not given)
 : .	-9	.	10%	.	.	1.0
CNc1cccccc1=S
 : -5	-6	-80%[inhibitor]	2%	0%	0.8%	8.9
CCOc1ccc(CNC(=O)CCS(=O)(=O)Cc2ccc(C)cc2)cc1OC
 : -16	6	-11%[15.4 µM]	5%	0%	25µM*	-1.1
Cc1cc(C)c(C(=O)CSc2nnc(-c3cccnc3)n2C)c(C)c1
 : 2	3	0%	27%	7%	-2.6%	2.4
CCCCN(C(=O)c1cccc(S(=O)(=O)N2CCN(C)CC2)c1)c1c(N)n(CCC)c(=O)[nH]c1=O
 : 16	1	-3%	.	8%	-3.7%	.
CC(=NCc1ccco1)C1=C(O)c2ccccc2C1=O
 : -11	-3	0%	7%	3%	0.8%	6.4
Cn1c(=O)c2c(ncn2CC(=O)N2CCCCCC2)n(C)c1=O
 : 1	9	-4%[15.4 µM]	10%	7%	.	0.8
O=c1[nH]c2ccccc2cc1CN(c1ccccc1)S(=O)(=O)c1ccccc1
 : 12	-5	3%	15%	-5%	32µM*	2.7
